High-throughput results (PubChem BioAssay)
T cruzi inh: T. cruzi replication inhibition; T. cruzi beta-gal in NIH3T3, luminescence, 90 h; AID 1885; inhibition, % (test concentration not listed); 1.4% of 300,000 active;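 active = mean inhibition across valid replicates above about 55%, limit read from the data; inconclusive = mean below that limit but half or more replicates reach it; inactive = mean below it, under half of replicates reach it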;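 also: signal also drops with host cell toxicity which is not excluded here; 0% = plate median of DMSO wells and 100% = zero luminescence signal; higher percent means less beta-gal luminescence so fewer parasites; stock transfer was 50 nL into about 50 µL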
rRNA inh HTS: inhibits bacterial ribosomal RNA function over humanized ribosomes; E. coli WT GFP vs humanized-ribosome RFP mutants, fluorescence, 24 h; stronger effect = lower value; DMSO median 0, no signal -100; AID 720706; GFP signal change (wild-type ribosome), % (concentration not given with the values); 1.6% of 350,000 active;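 active = significant combined selectivity score with lowered wild-type GFP, culture density cut under 30%, mutant RFP and density less affected; inactive = any of these conditions unmet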; also: one replicate is shown; some compounds called inactive have numbers as strong as hits
Calb FLC: C. albicans growth modulation with fluconazole; AID 1979; growth inhibition, % (concentration not given with the values); C. albicans CaCi-2 (fluconazole-resistant clinical isolate) + fluconazole, Alamar Blue growth, 48 h; 0.57% of 300,000 active;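 active = most replicates above 75%; inconclusive = exactly half above 75%; inactive = most below 75%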;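 also: all wells also contain fluconazole at 8 µg/ml as a sub-toxic cotreatment; 0% = median of DMSO wells and 100% = median of geldanamycin control wells; wells of about 8 µL received 7.5 nL stock; the first replicate is given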
FGF22 binding: shifts melting point of recombinant human FGF22 | Q9HCT0 | recombinant FGF22 thermal shift, SYPRO orange fluorescence; percent of sucrose octasulfate shift, DMSO zero | calls only at 9.99 µM | 1.5% of 340,000 active | AID 651658;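 active = melting point raised past a set limit in the mean and every replicate; inconclusive = no clear call; three in four hits are not shown here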
Target sequence (Q9HCT0 whole entry, looked up): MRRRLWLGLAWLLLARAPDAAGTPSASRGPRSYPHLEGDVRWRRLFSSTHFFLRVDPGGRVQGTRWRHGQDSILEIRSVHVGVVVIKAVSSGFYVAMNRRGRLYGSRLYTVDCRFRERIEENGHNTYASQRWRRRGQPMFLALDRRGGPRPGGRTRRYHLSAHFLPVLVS
ALR inh: blocks human ALR sulfhydryl oxidase activity. P55789. inhibition, % (concentration not given with the values). purified ALR, DTT oxidation, H2O2 HRP-luminol luminescence. 3.8% of 290,000 active. AID 485317;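 active = mean and each replicate at 75% or more; inconclusive = only one of the two met; inactive = neither met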;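 also: stock transfer was 7.5 nL into about 7.5 µL; 0% = neutral wells and 100% = wells with inactivated enzyme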
Target sequence (P55789 whole entry, looked up): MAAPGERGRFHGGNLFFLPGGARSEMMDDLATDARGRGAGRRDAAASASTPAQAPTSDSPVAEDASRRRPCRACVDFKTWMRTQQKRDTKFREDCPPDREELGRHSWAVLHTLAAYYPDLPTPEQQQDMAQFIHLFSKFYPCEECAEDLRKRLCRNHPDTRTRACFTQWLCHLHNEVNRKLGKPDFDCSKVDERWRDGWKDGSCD
RanGTP-Impb inh: inhibitors of RanGTP-importin-beta interaction, primary screen, biochemical, FRET, CFP-Ran, YFP-importin-beta, homogeneous | cell-free CFP-Ran/YFP-importin-beta FRET ratio | inhibition, % (concentration not given with the values) | 1.1% of 300,000 active;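 active = most replicates above 15%; inconclusive = exactly half above 15%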;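 also: 0% = DMSO wells and 100% = Ran loaded with GDP instead of GTP; wells of about 40 µL received 100 nL stock; the first replicate is given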
Beta apoptosis: blocks beta cell apoptosis. INS-1E cytokine-induced death, ATP luminescence, 48 h; percent of positive-control rescue, neutral wells zero. protection from apoptosis, % (no concentration beside the values). 0.8% of 300,000 active. AID 435005;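 active = all replicates at 75% or more, or half of them and the mean; inconclusive = half reach 75% but not the mean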;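 also: 0% = cytokine-treated negative control wells and 100% = positive control rescue; higher means more ATP so stronger rescue from cytokine killing; wells of about 40 µL received 100 nL stock; the first replicate is given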
AF4-AF9 inh: MLL-AF4/AF9 protein interaction inhibition | P42568 | AlphaScreen, biotin-AF4 peptide binding to FLAG-AF9 | inhibition, % at 10 µM | 0.47% of 350,000 active;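 active = every replicate reaching a set inhibition limit, whatever the replicate mean, cut at about 25% in these data; inconclusive = mean inhibition reaches that limit but some replicates miss it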;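 also: 0% = plate neutral control median and 100% = total signal loss; the record names both 10 and 1 µM as test concentration; the first replicate is given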
Target sequence (P42568 whole entry, looked up): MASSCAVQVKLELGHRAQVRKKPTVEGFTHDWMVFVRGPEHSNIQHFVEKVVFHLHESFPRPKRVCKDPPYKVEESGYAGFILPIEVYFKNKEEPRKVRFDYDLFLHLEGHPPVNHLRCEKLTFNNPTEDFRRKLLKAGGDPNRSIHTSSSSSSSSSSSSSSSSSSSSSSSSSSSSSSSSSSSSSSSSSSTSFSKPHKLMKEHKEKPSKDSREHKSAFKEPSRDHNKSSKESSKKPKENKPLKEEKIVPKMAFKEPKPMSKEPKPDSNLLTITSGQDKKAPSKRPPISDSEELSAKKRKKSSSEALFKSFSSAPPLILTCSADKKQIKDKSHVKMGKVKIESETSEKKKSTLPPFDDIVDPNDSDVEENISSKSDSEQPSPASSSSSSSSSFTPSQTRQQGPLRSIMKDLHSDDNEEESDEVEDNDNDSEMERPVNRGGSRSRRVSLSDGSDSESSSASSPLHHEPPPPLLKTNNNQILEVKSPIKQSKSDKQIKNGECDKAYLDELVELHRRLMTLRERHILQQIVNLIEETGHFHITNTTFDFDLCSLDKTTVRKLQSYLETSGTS
rRNA inh HTS OD600: further read-out of rRNA inh HTS, marked with its call; OD600 change, %; measured here: OD600 growth;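 optical density of the mix in the first replicate; 0 = DMSO median and -100 = no signal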
rRNA inh HTS RFP: further read-out of rRNA inh HTS, marked with its call; RFP signal change, %; measured here: RFP humanized mutant strains;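 first replicate; 0 = DMSO median and -100 = no signal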
The depositor's hits bear a star; i = inactive; ? = inconclusive; · = not tested or not shown; + = active, no number.

SMILES | T cruzi inh | rRNA inh HTS | rRNA inh HTS OD600 | rRNA inh HTS RFP | Calb FLC | FGF22 binding | ALR inh | RanGTP-Impb inh | Beta apoptosis | AF4-AF9 inh
CN(C)c1ccc(C=C2C(=O)OC3(CCCC3)OC2=O)cc1 | -14 | 20 | 20 | 18 | 3 | i | 58 | 7.6 | -1 | 0.6
CCOC(=O)N1C(=O)[C@@](c2ccc(Cl)cc2)(C(C)C)N1C(=O)OCC | -23 | -6 | -4 | -2.1 | -5 | i | 13 | 2.2 | 22 | 2.2
Cc1coc2c1c(C)cc1oc(=O)c(CC(=O)N[C@@H](CC(C)C)C(=O)O)c(C)c12 | -9 | -12 | -15 | -4.8 | 0 | i | -2 | 1.5 | -2 | -0.1
O=C(Oc1ccc2ccccc2c1Cl)N1CCCCCC1 | 11 | -9 | 1 | 0.5 | -1 | i | -154 | -0.3 | -1 | -11
Cc1ccc(CCC(=O)Nc2ncc(Cc3cc(Cl)ccc3Cl)s2)o1 | 1 | -44 | -55 | 22 | 3 | i | 54 | 0.7 | -4 | 3.7
O=C(CSC1=NNC(c2ccccn2)S1)Nc1ccccc1 (stereo not drawn) | -16 | -19* | -12* | 1.2* | -1 | i | 57 | 2.5 | -4 | -0.9
CCOC(=O)c1nc2nc(-c3cccs3)cc(C(F)(F)F)n2n1 | 4 | · | · | · | 5 | · | 1 | -1.1 | -12 | ·
CCc1nc(NCC(C)C)c(C#N)c2c1COC(C)(C)C2 | 0 | · | · | · | -2 | · | -18 | 0.0 | -6 | ·
CC(=O)N1CCN(C(=O)c2ccc(C)c(S(=O)(=O)N3CCCCC3)c2)CC1 | · | 19 | 13 | 1.0 | · | i | · | · | -2 | -0.1
O=C(N/N=C/c1ccc[nH]1)c1cc2ccccc2cc1O | -11 | 3 | 1 | 0.7 | ? | + | · | 8.3 | 7 | 9.7
O=C(NCc1ccco1)c1ccccc1NS(=O)(=O)c1ccc(Cl)s1 | -2 | · | · | · | 62 | · | 95* | ? | -2 | ·
Cc1cccc(C)c1NC(=S)NC(C)(C)CO | 0 | 19 | 14 | -2.3 | 1 | i | · | ? | -8 | -2.1
Cc1cc(F)ccc1NC(=O)C1CCN(C(=O)Nc2ccccc2)CC1 | -16 | · | · | · | -10 | · | 0 | 1.2 | · | ·
COc1ccc(CN(C)CC(=O)Nc2cccc(S(=O)(=O)N(C)c3ccccc3)c2)c(OC)c1 | · | -3 | -31 | -4.3 | · | i | -12 | · | -4 | 3.0
COc1ccc(COC(=O)NC(C(=O)O)c2ccccc2)cc1 (stereo not drawn) | -13 | 9 | 14 | 27 | 2 | i | -1 | -4.4 | 4 | -2.2
COc1ccc(-n2c(N)c(C(=O)NCc3ccco3)c3nc4ccccc4nc32)cc1 | -21 | · | · | · | 14 | · | -5 | 37* | -14 | ·
CC12CCC(=O)N1C(C(=O)NCCN1C(=O)S/C(=C\c3ccccc3Cl)C1=O)CS2 (stereo not drawn) | · | · | · | · | · | i | -5 | · | -5 | 4.0
O=C1C(=O)N(Cc2cccnc2)C(c2ccccn2)/C1=C(/O)c1ccc(F)cc1 (stereo not drawn) | -13 | · | · | · | 4 | · | -43 | ? | -1 | ·
O=C(CCN1CCN(C(=O)c2ccco2)CC1)Nc1ccc(F)cc1 | -6 | · | · | · | -2 | · | -7 | 2.8 | -5 | ·
O=C(CCSCc1ccc(Cl)cc1)NCc1cccnc1 | 0 | -10 | 1 | -2.3 | -4 | i | -7 | 2.2 | -3 | -1.5
O=C(CCc1nc(-c2ccccc2F)no1)NCc1ccco1 | 14 | · | · | · | 13 | · | 4 | -1.1 | 4 | ·
CCOC(=O)c1cc2sc(C)cc2n1C(C)C(=O)OCC (stereo not drawn) | -11 | · | · | · | 0 | · | 1 | 0.7 | 6 | ·
Cc1nnc(NC(=O)CSc2nc3ccccc3[nH]2)s1 | -10 | 0 | 9 | -2.5 | 28 | i | -6 | 4.9 | -3 | -0.8
CNC(=O)CSc1nnc(-c2ccco2)n1-c1ccc(C)cc1 | -1 | · | · | · | 0 | · | -4 | 3.3 | 1 | ·
Cc1ccc(C(=O)N[C@H](C(=O)OCc2nnc(-c3ccccc3)o2)C(C)C)cc1 | 3 | 21 | 15 | -1.7 | -6 | i | -1 | -0.9 | -5 | -6.2
More compounds
SMILES | T cruzi inh | rRNA inh HTS | rRNA inh HTS OD600 | rRNA inh HTS RFP | Calb FLC | FGF22 binding | ALR inh | RanGTP-Impb inh | Beta apoptosis | AF4-AF9 inh
CC(C)CN1CCNC(=O)C1CC(=O)N(C)CC1CCOCC1 (stereo not drawn) | -6 | 8 | 7 | -2.7 | -1 | i | -25 | -6.8 | 2 | 2.8
CSc1ccccc1C(=O)Nc1ccccc1C(=O)N1CCCC1 | -24 | -1 | -2 | -0.2 | 2 | i | · | 3.6 | -5 | -0.4
CCOc1ccccc1NC(=O)CSc1nnc2ccc(-c3ccncc3)nn12 | -1 | -2 | -2 | -1.9 | -4 | i | -1 | -2.3 | 2 | 8.0
O=S(=O)(NCc1ccccc1)c1cccc(S(=O)(=O)N2CCOCC2)c1 | 6 | · | · | · | -3 | · | 0 | 3.0 | -6 | ·
CCSc1ncc(Cl)c(C(=O)Nc2ccccc2OC)n1 | -1 | 8 | 15 | -0.1 | -4 | i | · | 2.4 | · | -1.1
Cc1ccc(N2CCN(/N=C/c3ccncc3)CC2)cc1 | 36 | 4 | -3 | -0.8 | -5 | i | 27 | 1.9 | 9 | 6.4
COc1ccc(Cc2noc(CN3CCN(Cc4csc(C)n4)CC3)n2)cc1OC | -2 | 11 | 11 | 3.7 | -17 | · | · | -1.4 | -1 | -0.1
CCS(=O)(=O)Nc1ccc(C2=NN(C(=O)c3ccco3)C(c3ccco3)C2)cc1 (stereo not drawn) | 7 | -1 | -2 | 1.0 | -1 | i | · | 2.1 | 10 | -9.3
NC(=O)N/N=C/CCc1ccccc1 | -8 | -5 | 5 | -5.6 | -1 | i | -2 | 3.7 | -6 | ·
CN(NC(=O)c1ccccc1)C1=NS(=O)(=O)c2ccccc21 | -13 | 21 | 16 | 0.1 | -4 | i | -1 | 5.1 | · | 6.9
CCOc1ccc(N/N=C(/C#N)C(N)=O)cc1 | -2 | 6 | -1 | -4.4 | -16 | · | 98* | 7.0 | -2 | -15
COc1ccc(OC)c([C@@H]2OCCC=C[C@H]2C)c1 | -2 | 13 | 13 | -0.4 | -9 | i | -4 | 6.2 | -9 | -2.9
CC(=O)Nc1cccc(C(=O)NCC2(N3CCCCC3)CCCCC2)c1 | -31 | 18 | 9 | 1.0 | -11 | i | -3 | 2.4 | 1 | 0.1
CC1(c2nnc(-c3ccc(Cl)cc3)o2)CC(c2ccncc2)=NO1 (stereo not drawn) | -10 | -4 | -7 | 13 | 0 | i | · | -0.4 | 7 | 1.4
COC(=O)C1=C(C)Nc2[nH]c(=S)[nH]c(=O)c2C1c1ccc(O)cc1 (stereo not drawn) | 0 | 6 | -1 | -2.5 | 12 | i | 31 | -1.6 | -3 | -37
CN(CC(=O)Nc1ccccc1Cl)C(=O)Cn1nnc(-c2ccc(F)cc2)n1 | -7 | -2 | 2 | 1.1 | 7 | · | 1 | -1.1 | · | 0.3
COc1ccc(NC(=O)c2ccccc2NC(=O)CSc2ccccc2)cc1 | 10 | · | · | · | -15 | · | -3 | 0.8 | 8 | ·
O=C(NCc1cccc(C(F)(F)F)c1)c1cccc(S(=O)(=O)NCc2ccccc2)c1 | -4 | · | · | · | -37 | · | -15 | 0.7 | 2 | ·
CC1Cc2ccccc2N1C(=O)COC(=O)c1n[nH]c(=O)c2ccccc12 (stereo not drawn) | · | -1 | 5 | -0.1 | · | i | 1 | · | 3 | -0.8
CC(C)(C)Cc1nnc(NC(=O)CCC2CCCCC2)s1 | 8 | 10 | 5 | 4.3 | -5 | · | 4 | -2.9 | · | ·
COc1cccc(/C=C2\CCC(C3CCCC3)C2=O)c1OC (stereo not drawn) | 8 | -20 | -25 | -18 | 2 | i | 0 | -3.1 | -1 | 7.1
O=C(COC(=O)C1CCN(C(=O)c2ccc(Cl)cc2)CC1)NC1CCS(=O)(=O)C1 (stereo not drawn) | -7 | -4 | 5 | 5.4 | 8 | i | -6 | 0.6 | 1 | -1.0
O=C(CCCN1C(=O)/C(=C/c2ccccc2Cl)SC1=S)NNC(=O)c1ccc(Cl)cc1Cl | -11 | 6 | 4 | 0.3 | -4 | i | -4 | ? | -3 | 5.9
Cc1ccc2nc(SCC(=O)OCc3ccccc3)nc(=O)n2c1 | -14 | 6 | 2 | 0.3 | 3 | i | · | -0.2 | -1 | 0.9
CCN1CCN(c2cc(C)c3cc(NC(=O)c4cccnc4Cl)ccc3n2)CC1 | 16 | · | · | · | 15 | · | -14 | ? | -7 | ·
The list continues:
SMILES | T cruzi inh | rRNA inh HTS | rRNA inh HTS OD600 | rRNA inh HTS RFP | Calb FLC | FGF22 binding | ALR inh | RanGTP-Impb inh | Beta apoptosis | AF4-AF9 inh
CC/C=C/C(=O)N1CC2(CC(c3cccc(NC(=O)COc4ccc(Cl)cc4)c3)=NO2)C[C@H]1C(N)=O (stereo partly drawn) | 12 | -9 | -3 | 32 | -4 | i | -8 | 2.0 | 0 | -12
COc1cc(/C=C2\C(=N)N3N=C(S(C)(=O)=O)SC3=NC2=O)cc(OC)c1OCCOc1cccc(C)c1 | -3 | -14 | -15 | 1.8 | 3 | + | 58 | 2.1 | -10 | -24
Cc1csc(NC(=O)c2c(-c3c(Cl)cccc3Cl)noc2C)n1 | 6 | · | · | · | -4 | · | 4 | 1.0 | 2 | ·
O=C(COc1ccccc1[N+](=O)[O-])N(Cc1ccccc1)c1ccccn1 | 4 | -5 | -5 | -3.0 | 39 | i | -8 | 5.6 | -2 | 4.0
CCOc1ccc(C(=O)O)cc1OC | -16 | · | · | · | 4 | · | · | -1.5 | -3 | ·
CC1CCC2C(=O)N(c3ccc(C(=O)Oc4cccc5cccnc45)cc3)C(=O)C2C1 (stereo not drawn) | -6 | · | · | · | -7 | · | -32 | -0.7 | -11 | ·
Cc1cccc(C(=O)NCCC(=O)Nc2ccc(C)c(F)c2)c1 | -3 | -3 | -2 | 2.7 | 2 | i | -1 | 0.0 | 1 | -0.8
Cc1ccc(N(CC(O)CN2CCCCC2)S(=O)(=O)c2ccccc2)cc1 (stereo not drawn) | 3 | 9 | 6 | -1.8 | · | i | -4 | 2.2 | -7 | 4.7
O=C(CN1C(=O)NC2(CCCC2)C1=O)Nc1cc(C(F)(F)F)ccc1N1CCCCC1 | 4 | -21 | -24 | -9.9 | · | i | -5 | 1.1 | 5 | 0.0
CC1(OC(=O)CCc2ccccc2)C(=O)C=C2C=C(c3ccc(C#N)cc3)N(Cc3ccccc3)C=C2C1=O (stereo not drawn) | 12 | 5 | 11 | 0.9 | 6 | i | · | 2.7 | -3 | 1.4
CCC(CO)Oc1cc(NCc2ccc(C)c(C)c2)c2ncn(C(C)C)c2c1 (stereo not drawn) | · | 6 | -3 | 18 | · | i | 4 | · | 101* | 9.1

Only part of the results is shown. The share of hits here may be higher or lower than overall.
